Screening results deposited in PubChem by several laboratories.
B2AR ag: beta2AR agonists driving receptor internalization, primary screen, cell-based, FAP fluorogen, flow cytometry | Beta-2 adrenergic receptor (Homo sapiens), P07550 | Am2.2-beta2AR cells; reference of the scale not given here | response, % (test concentration not listed) | hit rate 0.43% among 340,000 | AID 504454, 2011;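 active means response above a set limit, near 3 SD of response in nonfluorescent compounds, cut at about 42% in these data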;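 further: stock transfer was 100 nL into about 11 µL; a reference agonist was the positive control; negative values mostly stem from fluorescent compounds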
Target sequence (P07550 whole entry, looked up): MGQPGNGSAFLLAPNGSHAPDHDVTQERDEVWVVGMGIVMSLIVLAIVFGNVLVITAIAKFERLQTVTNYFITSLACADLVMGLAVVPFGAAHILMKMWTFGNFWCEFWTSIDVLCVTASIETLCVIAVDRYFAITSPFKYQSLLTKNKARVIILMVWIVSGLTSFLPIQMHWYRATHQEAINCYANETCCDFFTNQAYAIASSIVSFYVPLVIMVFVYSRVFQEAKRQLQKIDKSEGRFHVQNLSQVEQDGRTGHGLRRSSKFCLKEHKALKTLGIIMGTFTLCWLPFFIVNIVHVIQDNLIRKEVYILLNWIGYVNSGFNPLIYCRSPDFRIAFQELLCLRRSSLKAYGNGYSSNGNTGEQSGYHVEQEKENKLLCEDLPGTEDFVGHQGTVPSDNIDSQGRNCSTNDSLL
Beta apoptosis: inhibitors of cytokine-induced beta cell apoptosis, primary screen, luminescence | INS-1E cytokine-induced death, ATP luminescence, 48 h; percent of positive-control rescue, neutral wells zero | protection from apoptosis, % (concentration not given with the values) | hit rate 0.8% among 300,000 | AID 435005, 2010;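 active means all replicates at 75% or more, or half of them and the mean; inconclusive means half reach 75% but not the mean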;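 further: 0% = cytokine-treated negative control wells and 100% = positive control rescue; higher means more ATP so stronger rescue from cytokine killing; wells of about 40 µL received 100 nL stock; the first replicate is given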
RanGTP-Imp inh: inhibitors of RanGTP-importin-beta interaction, primary screen, biochemical, FRET, CFP-Ran, YFP-importin-beta, homogeneous; AID 2216, 2009; Ran GTPase (GTP-bound) - importin-beta complex; hit rate 1.1% among 300,000; inhibition, % (no concentration beside the values); cell-free CFP-Ran/YFP-importin-beta FRET ratio;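 active means most replicates above 15%; inconclusive means exactly half above 15%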;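 further: 0% = DMSO wells and 100% = Ran loaded with GDP instead of GTP; wells of about 40 µL received 100 nL stock; the first replicate is given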
A1 inh: caspase 3/7 activation in MEF A1-2A-BIM cells, primary screen, A1 inhibitor project, cell-based, luminescence, HTS. Caspase-Glo 3/7 luminescence, 3 h; percent of clofoctol response, vehicle zero. caspase activation, % (concentration not given with the values). hit rate 0.066% among 330,000. AID 2462, 2010;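 active means over half of replicate activation scores above 10%, or exactly half above 10 with the replicate mean above 10; inconclusive means replicate mean below 10 yet half the replicates above 10; inactive means over half of replicates below 10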;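 further: wells of about 30 µL received 50 nL stock; many hits fall short of the cut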
LANA-H2B inh: blockers of LANA interaction with H2A/H2B – biochemical, FP readout, HTS, primary screen. Protein LANA1 (Human herpesvirus 8 type P (isolate GK18)), Q9QR71. cell-free LANA-H2A/H2B peptide, fluorescence polarization. inhibition, % (test concentration not listed). hit rate 0.6% among 320,000. AID 2629, 2010; in the data active means inhibition mostly above about 10%, no sharp cut-off; inactive means mostly below about 6.7%;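 further: stock transfer was 7.5 nL into about 10 µL; 0% = median of vehicle wells and 100% = median of positive control wells; one replicate is shown; the record names a cut of 25% in any replicate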
T cruzi inh: inhibitors of intracellular T. cruzi growth, primary screen, luminescence, NIH3T3 host cells | AID 1885, 2009 | inhibition, % (test concentration not listed) | hit rate 1.4% among 300,000 | T. cruzi beta-gal in NIH3T3, 90 h;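 active means mean inhibition across valid replicates above about 55%, limit read from the data; inconclusive means mean below that limit but half or more replicates reach it; inactive means mean below it, under half of replicates reach it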;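 further: signal also drops with host cell toxicity which is not excluded here; 0% = plate median of DMSO wells and 100% = zero luminescence signal; higher percent means less beta-gal luminescence so fewer parasites; stock transfer was 50 nL into about 50 µL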
UCH37 inh: inhibitors of human UCH37 deubiquitinase, primary screen, biochemical, Ub-AMC cleavage, fluorescence. purified proteasome/UCH37. inhibition, % (test concentration not listed). hit rate 0.33% among 330,000. AID 588478, 2011;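 active means mean of two replicates above 20%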;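 further: 0% = compound-free wells with enzyme and 100% = wells lacking proteasome; stock transfer was 100 nL into about 20 µL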
Target sequence (Q9Y5K5 whole entry, looked up): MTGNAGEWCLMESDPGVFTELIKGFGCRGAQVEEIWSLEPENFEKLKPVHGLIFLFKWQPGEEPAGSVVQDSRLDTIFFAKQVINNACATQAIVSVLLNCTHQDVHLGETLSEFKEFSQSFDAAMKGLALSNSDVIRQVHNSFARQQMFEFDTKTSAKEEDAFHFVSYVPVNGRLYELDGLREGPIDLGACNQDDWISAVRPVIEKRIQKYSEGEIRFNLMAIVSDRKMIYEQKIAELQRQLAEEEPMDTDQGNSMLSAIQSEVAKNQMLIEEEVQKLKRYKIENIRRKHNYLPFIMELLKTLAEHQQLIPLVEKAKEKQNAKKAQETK
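Material: Human UCH37 enzyme supplied as purified proteasome complex | Schedule: 30 min compound-proteasome preincubation then 25 min substrate reaction, room temperature | Detection: AMC fluorescence from Ub-AMC cleavage, excitation 355 nm, emission 460 nm | Benchmarks: Wells without proteasome as full block, compound-free enzyme plus substrate as uninhibited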
Calb FLC: C. albicans growth inhibition with fluconazole, primary screen, CaCi-2 strain, Alamar Blue fluorescence; hit rate 0.57% among 300,000; C. albicans CaCi-2 (fluconazole-resistant clinical isolate) + fluconazole, 48 h; growth inhibition, % (test concentration not listed); AID 1979, 2009;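 active means most replicates above 75%; inconclusive means exactly half above 75%; inactive means most below 75%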;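 further: all wells also contain fluconazole at 8 µg/ml as a sub-toxic cotreatment; 0% = median of DMSO wells and 100% = median of geldanamycin control wells; wells of about 8 µL received 7.5 nL stock; the first replicate is given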
Numbers without * were called inactive; ? = inconclusive; . = no result given.

Results follow in this order: LANA-H2B inh	Beta apoptosis	B2AR ag	Calb FLC	RanGTP-Imp inh	T cruzi inh	UCH37 inh	A1 inh
CN1/C(=C\C=C2/SC(=S)N(CC(=O)O)C2=O)C(C)(C)c2ccccc21
→ -92	43	-94	-40	-24	25	17	0.1
COc1ccccc1CNC(=O)c1cnc2ccccn2c1=O
→ 1.3	-6	-15	-3	-0.7	-2	-37	0.3
Cc1ccc(NC(=O)c2cnn(-c3ccccc3)c2C)cc1
→ 0.8	5	-33	-7	0.8	-3	1.4	-5.9
CCCCCCC(=O)Nc1nc(C)c(-c2csc(Nc3cccc(OC)c3)n2)s1
→ -4.9	-5	15	-9	0.7	-33	2.7	1.1
O=C(c1cccc(Cl)c1)N1CCC(C(=O)N2CCN(Cc3ccccc3)CC2)CC1
→ 1.3	3	79*	4	6.2	-11	0.8	0.2
COc1ccc(C(=O)NC2CCCc3c2cnn3-c2cc(F)cc(F)c2)c(OC)n1 (stereo not given)
→ -1.9	-2	-10	3	3.2	11	2.6	-0.5
CCOC(=O)c1cc(C(C)(C)C)n(CCCN2CCOCC2)c1C
→ 5.9	-4	-4	-4	6.4	0	6.4	0.7
Cc1csc(N(C(=O)c2cccc(S(=O)(=O)N(C)C)c2)c2ccccc2)n1
→ 5.2	3	5	-11	1.4	-6	2.7	-1.2
Cc1ccc(N2C(=O)c3ccccc3NC2(C(=O)O)c2ccccc2)cc1Cl (stereo not given)
→ 2.6	-2	-7	-4	-1.2	-7	4.0	-1.4
Cc1ccc(C(=O)Nc2ccc(S(=O)(=O)NC3=NCCCCC3)cc2)c(C)c1
→ .	-2	0	1	0.6	1	2.3	0.1
Cn1c(=O)cc(N)n(-c2ccccc2)c1=O
→ 5.3	-8	-6	3	?	-10	-0.2	0.1
N#CCC(=O)N/N=C/c1ccc(Cl)cc1
→ -0.1	0	2	1	-0.6	-6	.	0.5
COc1cccc(OC)c1C(=O)NCCc1ccccc1
→ 1.9	0	3	-13	4.0	-1	6.2	0.3
COc1cnc(-c2ccccc2)nc1Oc1ccc(C(C)(C)C)cc1
→ 2.8	.	1	-2	0.4	47	0.4	-0.2
CC1CCCN(C(=O)CCCC(=O)N2CCCC(C)C2)C1 (stereo not given)
→ 4.8	3	-8	6	-3.1	-9	5.3	1.0
CCC(CC)C(=O)Nc1cccc(C(=O)N2CCCCCC2)c1
→ -0.2	.	-5	-3	0.1	-3	0.4	1.1
Cc1cccc(NC(=O)CCNC(=O)c2ccc(Br)cc2)c1
→ 0.6	0	-1	6	-2.8	3	1.2	-0.1
CCCNC(=O)COc1ccc2c(=O)c(Oc3ccccc3F)coc2c1
→ 0.0	7	-8	9	0.4	-62	-0.9	-0.6
CCOC(=O)Cn1c(=O)c(-c2ccccc2NC)nc2ccccc21
→ -1.4	0	-6	-11	0.3	-8	3.9	-0.6
O=C(O)C1C2CCC(O2)C1C(=O)NCc1ccc(Cl)cc1 (stereo not given)
→ 4.4	.	2	-2	-1.7	-7	-1.0	0.0
CSCCC(NC(=O)C1CCC(C)CC1)C(=O)N1CCN(c2ccccn2)CC1 (stereo not given)
→ 4.3	-2	-12	-4	-5.0	0	2.5	0.0
COc1cc(C(=O)Nc2cccc(-c3cn4cccnc4n3)c2)cc(OC)c1OC
→ 0.9	2	-10	-13	6.9	4	-426	0.5
CSCC[C@H](NC(=O)c1cccc([N+](=O)[O-])c1C)c1nc2ccccc2[nH]1
→ 0.8	-9	-1	-17	1.1	6	1.9	0.1
COC(=O)C(C(=O)Nc1cccc(C)n1)C1CCCCCC1 (stereo not given)
→ -2.3	.	5	19	-0.5	-15	-0.4	-1.5
COc1ccc(CN2CCCC(C(=O)c3cccc(OC(C)C)c3)C2)cc1Cn1cccn1 (stereo not given)
→ 2.9	2	-6	2	3.7	49	6.0	-0.1
CN1C(=O)/C(=C2\SC(=S)N(CCCCCC(=O)O)C2=O)c2ccccc21
→ 1.5	-14	22	10	0.1	-5	.	0.3
OCCCNc1ncnc2sc(-c3ccccc3)cc12
→ 10	4	16	3	2.5	1	.	0.0
COC(=O)c1ccc(NC(=O)CCS(=O)(=O)c2ccc3c(c2)NC(=O)C(C)S3)cc1 (stereo not given)
→ 3.1	-7	-1	-1	-1.0	9	1.4	0.2
CCC1S/C(=N/C(=O)NC2CCCCC2)NC1=O (stereo not given)
→ -0.7	6	-9	4	3.9	-1	-0.6	-0.8
COC(=O)c1ccc(COc2c(F)c(F)cc(F)c2F)o1
→ -1.8	.	1	-7	4.5	-8	0.9	0.3
COC(=O)c1ccccc1OCC(=O)NC1CCCCC1
→ 1.6	-4	0	4	3.1	11	1.0	-1.1
Cc1cc2cc(C)c(SCC(=O)NCc3ccco3)nc2cc1C
→ 0.7	-3	3	2	0.3	20	3.7	-0.4
O=Cc1cc2ccccc2nc1SCCCF
→ 2.0	9	-118	?	-1.8	-11	2.4	0.3
Cc1ccccc1-n1c(SCc2ccccn2)nc2n[nH]c(C)c2c1=N
→ 0.4	4	6	-10	3.1	1	1.9	-0.1
COc1cccc(Oc2cncnc2-c2ccc(OC)cc2O)c1
→ -12	-5	2	0	?	26	5.4	-1.9
Cc1cc(=O)oc2cc(OCC(=O)OCC(=O)Nc3ccccc3C(C)C)ccc12
→ 4.6	-2	-3	0	-0.3	-4	-47	0.6
CCn1cc(CNC(=O)c2ccc3nc(Cc4ccc(OC)cc4)oc3c2)cn1
→ -6.4	7	-3	5	1.4	-26	5.0	0.4
Cc1ccc(NC(=O)CCC(C(=O)O)N2C(=O)c3ccccc3C2=O)cc1 (stereo not given)
→ 2.7	-8	-2	-3	-3.1	-23	-5.7	0.0
Cc1ccccc1N1C(=O)CC2(CCCC2)CC1=O
→ -2.4	-3	-3	7	3.4	-7	-0.2	0.5
COc1cc2ccccc2cc1C(=O)Nc1ccc(NC(=O)c2cccs2)cc1
→ 1.2	11	6	26	1.9	25	-0.8	0.1

Looked up by structure from the entries so far (2):
Results follow in this order: LANA-H2B inh	Beta apoptosis	B2AR ag	Calb FLC	RanGTP-Imp inh	T cruzi inh	UCH37 inh	A1 inh
Cc1ccccc1-n1c(SCc2ccccn2)nc2n[nH]c(C)c2c1=N
→ 0.4	4	6	-10	3.1	1	1.9	-0.1
CN1C(=O)/C(=C2\SC(=S)N(CCCCCC(=O)O)C2=O)c2ccccc21
→ 1.5	-14	22	10	0.1	-5	.	0.3

Other records
Results follow in this order: LANA-H2B inh	Beta apoptosis	B2AR ag	Calb FLC	RanGTP-Imp inh	T cruzi inh	UCH37 inh	A1 inh
NC(=O)c1nsc(C(=O)N(c2ccccc2)C(C(=O)NC2CCCC2)c2ccc3ncccc3c2)c1N (stereo not given)
→ -5.0	3	-1	-8	4.0	10	-77	0.3
Cc1csc2nc(NC(=O)c3ccccc3)sc(=O)c12
→ -1.5	0	13	-1	-0.4	-8	-68	-2.6
COc1cc(CN2CCCCC2)ccc1OCc1ccccc1
→ -1.1	-6	0	1	6.3	82*	2.5	-0.3
Nc1cccnc1Sc1ccc([N+](=O)[O-])cn1
→ .	.	0	-9	1.5	-6	6.1	.
Cc1c(NC(=O)C(C)OC(=O)COc2ccccc2)c(=O)n(-c2ccccc2)n1C (stereo not given)
→ -5.8	-3	10	-1	-4.8	-10	2.2	-0.9
O=C(NC1CCCCC1)C(c1ccc(F)cc1)N(Cc1ccco1)C(=O)Cn1nnc2ccccc21 (stereo not given)
→ -2.7	11	-4	-1	3.9	6	-0.6	-0.1
CCn1c(C)nc2cc(OC)ccc21
→ 1.4	.	16	-24	-2.1	-9	-0.1	-0.3
CN(CC1CCCO1)S(=O)(=O)c1ccc(C(=O)Nc2nccs2)cc1 (stereo not given)
→ -4.2	-10	-1	3	-2.9	-9	4.4	0.0
O=C(CCNC(=O)c1ccco1)NCc1ccc(C(=O)O)cc1
→ -4.9	-2	-1	.	.	.	3.9	-0.8
COc1cc(NC(N)=S)c(OC)cc1Cl
→ 2.0	-6	10	-2	4.1	6	3.0	-0.2
Cc1c(C(=O)NCCCN2CCCC2=O)oc2c(Cl)cccc12
→ -3.0	-2	14	1	?	-3	2.2	0.4
Cc1csc(NC(=O)CSc2nnc(-c3ccncc3)o2)n1
→ 1.3	-2	-8	10	7.2	-12	3.1	-0.1
O=C(O)c1cccc(N2C(=O)C3CC=C(Cl)CC3C2=O)c1 (stereo not given)
→ -0.5	-2	3	-4	1.7	-9	1.2	-0.6
COc1cc(/C=C2\N=C(c3ccccc3)OC2=O)ccc1OCc1c(C)no[n+]1[O-]
→ 13	-1	8	5	-1.7	-8	-3.8	0.5
O=C(NC(=S)NCc1ccncc1)c1ccccc1
→ -4.1	1	-1	2	5.9	-7	1.3	-0.5
CC(C(=O)Nc1ccc(Cl)cc1Cl)N1C(=O)NC2(CCCCCCC2)C1=O (stereo not given)
→ -1.0	-4	-7	.	.	.	0.6	1.0
O=C1CSC(c2cccnc2)N1Cc1ccc(Cl)cc1 (stereo not given)
→ 0.1	-2	-3	-30	5.2	-9	3.4	1.7

Structural class: those above containing two or more sulfur atoms
Results follow in this order: LANA-H2B inh	Beta apoptosis	B2AR ag	Calb FLC	RanGTP-Imp inh	T cruzi inh	UCH37 inh	A1 inh
CN1/C(=C\C=C2/SC(=S)N(CC(=O)O)C2=O)C(C)(C)c2ccccc21
→ -92	43	-94	-40	-24	25	17	0.1
CCCCCCC(=O)Nc1nc(C)c(-c2csc(Nc3cccc(OC)c3)n2)s1
→ -4.9	-5	15	-9	0.7	-33	2.7	1.1
Cc1csc(N(C(=O)c2cccc(S(=O)(=O)N(C)C)c2)c2ccccc2)n1
→ 5.2	3	5	-11	1.4	-6	2.7	-1.2
CN1C(=O)/C(=C2\SC(=S)N(CCCCCC(=O)O)C2=O)c2ccccc21
→ 1.5	-14	22	10	0.1	-5	.	0.3
COC(=O)c1ccc(NC(=O)CCS(=O)(=O)c2ccc3c(c2)NC(=O)C(C)S3)cc1 (stereo not given)
→ 3.1	-7	-1	-1	-1.0	9	1.4	0.2
Cc1csc2nc(NC(=O)c3ccccc3)sc(=O)c12
→ -1.5	0	13	-1	-0.4	-8	-68	-2.6
CN(CC1CCCO1)S(=O)(=O)c1ccc(C(=O)Nc2nccs2)cc1 (stereo not given)
→ -4.2	-10	-1	3	-2.9	-9	4.4	0.0
Cc1csc(NC(=O)CSc2nnc(-c3ccncc3)o2)n1
→ 1.3	-2	-8	10	7.2	-12	3.1	-0.1
